Compound activity deposited in PubChem BioAssay by National Center for Advancing Translational Sciences (NCATS).
Sfp PPTase inh = qHTS Assay for Inhibitors of Bacillus subtilis Sfp phosphopantetheinyl transferase (PPTase); 310,000 compounds, 3.5% hits; Potency, µM, for the others: max response, negative = inhibition, most hits filed as inhibitors; Biochemical Sfp PPTase activity, qHTS; 4'-phosphopantetheinyl transferase ffp (Bacillus subtilis), Q9F4F7; active = well fitted inhibition curve with a large enough effect; inconclusive = small, poorly fitted or top-dose-only effect, or another doubt; inactive = no such curve, though single readings can be large or run the other way;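 note: the enzyme is Sfp with the accession as filed and its product quenches rhodamine fluorescence; potency is the fitted concentration of half-maximal effect; 0% = enzyme reaction without inhibitor and -100% = no enzyme wells; top concentration of the series not given in the record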
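Compounds were incubated with enzyme (final 15 nM) for 15 min at room temperature before substrate addition started the reaction. Fluorescence at 525 nm excitation, 598 nm emission was recorded immediately and after 30 minutes.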
CtBP-E1A blk = qHTS Assay for Inhibitors of the CtBP/E1A Interaction | activity change, % (test concentration not listed) | 340,000 compounds, 0.49% hits | AlphaScreen GST-E1A/His-CtBP binding, 1536-well; active compounds read low; control for the full effect not named in the record | CtBP / adenovirus E1A interaction (AlphaScreen) | AID 651724, 2012; in the data active means activity change below about -65%; inconclusive means about -30% to -65%; inactive means above about -30%; note: % is set by controls: 0 for no effect and ±100 for the full control effect
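In 5 uL wells, 23 nL compound meets equimolar GST-E1A and His-CtBP (5X stock 125 nM each) for 2 h, 37 °C. Beads (5X, 50 ug/mL) then 1 h, 37 °C, dark.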
Six1-Eya2 blk = qHTS Assay for Inhibitors of the Six1/Eya2 Interaction. AlphaScreen GST-Six1/His-Eya2 binding, biochemical; active compounds read low; control for the full effect not named in the record. activity change, % (test concentration not listed). 360,000 compounds, 0.56% hits; in the data active = activity change below about -65%; inconclusive = about -30% to -65%; inactive = above about -30%; note: % is set by controls: 0 for no effect and ±100 for the full control effect
Target sequence (O00167 whole entry, looked up): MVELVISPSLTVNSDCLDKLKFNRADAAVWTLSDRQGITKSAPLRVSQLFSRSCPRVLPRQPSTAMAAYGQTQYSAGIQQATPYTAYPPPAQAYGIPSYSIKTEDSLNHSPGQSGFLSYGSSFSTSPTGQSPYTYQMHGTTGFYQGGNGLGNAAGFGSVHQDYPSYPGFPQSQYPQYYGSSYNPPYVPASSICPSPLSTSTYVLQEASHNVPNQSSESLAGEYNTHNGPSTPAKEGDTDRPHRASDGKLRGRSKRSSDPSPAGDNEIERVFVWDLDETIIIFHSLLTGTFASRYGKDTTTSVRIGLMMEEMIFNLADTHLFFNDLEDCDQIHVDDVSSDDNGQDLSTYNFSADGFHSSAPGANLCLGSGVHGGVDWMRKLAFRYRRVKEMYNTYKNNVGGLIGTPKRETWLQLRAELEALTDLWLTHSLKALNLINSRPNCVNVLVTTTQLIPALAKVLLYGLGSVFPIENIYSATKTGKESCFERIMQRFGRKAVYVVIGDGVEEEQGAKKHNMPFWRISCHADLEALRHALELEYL
Target sequence (Q15475 whole entry, looked up): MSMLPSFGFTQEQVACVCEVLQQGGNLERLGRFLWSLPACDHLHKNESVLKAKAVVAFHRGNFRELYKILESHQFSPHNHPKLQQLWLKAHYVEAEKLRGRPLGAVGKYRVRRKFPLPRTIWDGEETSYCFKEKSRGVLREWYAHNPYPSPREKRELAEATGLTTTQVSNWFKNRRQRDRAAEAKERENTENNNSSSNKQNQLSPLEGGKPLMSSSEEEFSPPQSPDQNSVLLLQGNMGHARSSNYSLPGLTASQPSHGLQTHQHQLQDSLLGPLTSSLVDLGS
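GST-Six1 + His-Eya2 (5X stock: 250/500 nM); Tris pH 8.0, 300 mM NaCl, 0.05% BSA, 0.02% Tween 20; GSH donor/Ni acceptor beads; 1 h 37 °C dark; AlphaScreen readout.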
TRPV1 PAM = HTS Assay for Compounds that Act as Potentiators of the Vanilloid Receptor 1; Transient receptor potential cation channel subfamily V member 1 (Homo sapiens), Q8NER1; TRPV1-expressing cells, Fluo-8 calcium influx, capsaicin EC20 potentiation; host cell line not named in the record; control for the full effect not named in the record; potentiation, % at 8.33 µM; 320,000 compounds, 0.02% hits; AID 540277, 2011; active means potentiation above 80%; inconclusive means 30% to 80%; inactive means below 30%; note: 0% is about no effect
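Fluo-8 calcium influx in TRPV1-expressing cells, kinetic read (ex 480/em 520 nm). Compound added and read 3 min for agonist activity, followed by capsaicin at EC20 final and 2 min further read for enhancement.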
PINK1 modulator = A Quantitative High throughput Screen to Identify Chemical Modulators of PINK1 Expression | 410,000 compounds, 0.2% hits | PINK1 immunofluorescence, high-content cytometry, 24 h | Potency, µM (titrated, usually from 76.6 µM), for the others: at the highest dose activation (PINK1 increase), usual class: activators; active = well fitted activation curve with a large enough effect; inconclusive = small, poorly fitted or top-dose-only effect; inactive = flat fitted curve, though single readings scatter; cell line not stated here;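 note: potency is the fitted concentration of half-maximal effect; % of control where 0% means no effect; nearly all actives have a fitted effect of over 65% in size; a mitochondrial uncoupler was the plate control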
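Fluorescence from anti-PINK1 antibody, together with nuclear and cell stains, was scanned on a laser-scanning cytometer. Before staining, stable-line cells were incubated 24 hours with compounds at 5 concentrations; primary antibody 12 h at 10 degrees C.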
D2 ag = Beta-Arrestin HTS for Positive Allosteric Modulators of the Human D2 Dopamine Receptor: Agonists. D(2) dopamine receptor (Homo sapiens), P14416. DiscoveRx PathHunter D2 beta-arrestin, luminescence, 90 min; 100% = 57 uM dopamine signal. activation, % (concentration not given with the values). 360,000 compounds, 0.084% hits; in the data active = activation above about 40%; inconclusive = about 15% to 40%; inactive = below about 15%; note: the text of the record calls up to 30% inactive
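DiscoveRx PathHunter D2 beta-arrestin cells (2,100/well) attached overnight, then compound-stimulated 90 min at 37 C in HBSS/10 mM HEPES/0.1% Tween-20 buffer; beta-galactosidase complementation read by luminescence after 1 h at ambient temperature. Dopamine 57 uM final (EC100) as control.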
D2 PAM = Beta-Arrestin HTS for Positive Allosteric Modulators of the Human D2 Dopamine Receptor: Potentiators; D(2) dopamine receptor (Homo sapiens), P14416; DiscoveRx D2 beta-arrestin cells, luminescence, 90 min; 100% = 57 uM dopamine signal; potentiation, % (test concentration not listed); 360,000 compounds, 0.23% hits; AID 624464, 2012; active = potentiation of 50% or more; inconclusive = 30% to 50%; inactive = 30% or less;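 note: compound concentration not given in the record; tested on top of an EC20 dose of dopamine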
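PathHunter beta-arrestin assay in DiscoveRx D2 cells. Compounds were added with an EC20 of dopamine (50 nM final) for 90 min at 37 deg C. Luminescence was read 1 h after detection reagent, with 57 uM dopamine as the EC100 control.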
The depositor's hits bear a star; ? = inconclusive; · = no result given; [ ] = remark or other dose.

Every second line gives: Sfp PPTase inh | CtBP-E1A blk | Six1-Eya2 blk | TRPV1 PAM | PINK1 modulator | D2 ag | D2 PAM
CCCCN(C)c1c(C)nc2ccc(C(=O)N(CC)CCN(C)C)cn12
→ · | 1 | 0 | · | -1.2% | -4.2 | -15
Cc1ncc(CO)c(/C=N/NC(=S)Nc2cccc(Cl)c2)c1O
→ 50µM* | · | -19 | 11 | 1.7% | -3.4 | -9
Cc1ccccc1-c1nc(CS(=O)(=O)CC(=O)NCc2ccc3c(c2)OCO3)c(C)o1
→ 0% | -5 | 0 | 3 | 1.0% | -1.0 | -8
COc1ccccc1CNC(=O)N1CCN(S(=O)(=O)c2ccccc2)CC1
→ 22% | 6 | -7 | -15 | -0.9% | -1.5 | -2
CC(C)c1ccc([N+](=O)[O-])cc1S(=O)(=O)N1CCN(C)CC1
→ 7% | 2 | -1 | -15 | 4.1% | 3.8 | 0
CCc1ccc(OCC(=O)N/N=C/c2cc([N+](=O)[O-])ccc2N2CCCCCC2)cc1
→ -6% | 12 | 1 | 16 | -0.8% | 1.2 | -6
Cc1ccc(NC(=O)CSCC(=O)O)cc1
→ 23% | · | -1 | -9 | 2.6% | -4.6 | -3
Cc1ccc2[nH]c3c(c2c1)CCNC3=O
→ 17% | 2 | -6 | -11 | -0.1% | -4.0 | 3
COc1ccccc1NC(=O)CCC(=O)Nc1nnc(C2CCCCC2)s1
→ 1% | 11 | 1 | -12 | -0.3% | 3.6 | -21
CCc1cccc(NC(=O)C2CCCN(S(=O)(=O)c3cnc[nH]3)C2)c1 (stereo not drawn)
→ 16% | 2 | 0 | 13 | -1.2% | 1.3 | -12
CC1(C)CC(NC(=S)NC2CC2)CC(C)(C)N1
→ 12% | -12 | -1 | 3 | 0.5% | -3.9 | -7
O=C1CC(N(C(=O)c2ccco2)c2cccc(Cl)c2)C(=O)N1c1cccc(Cl)c1 (stereo not drawn)
→ 4% | 10 | -1 | -7 | 2.3%[38.3 µM] | 2.4 | -11
CCOc1cc(-c2nnc(NC(=O)C3=COCCO3)o2)cc(OCC)c1OCC
→ · | -11 | -27 | -2 | -0.5% | -3.1 | -10
CC(=O)Oc1ccc(NC(=O)Cc2ccccc2)cc1
→ 14% | 3 | 1 | 0 | 11%[38.3 µM] | -2.0 | -2
COc1ccc(NC(=O)Cc2ccccc2F)cc1S(=O)(=O)N1CCCCC1
→ · | 4 | 6 | -18 | 1.7% | -1.7 | -1
CCCNNC(=O)C(O)(c1cccc(C)c1)c1cccc(C)c1
→ 3% | 5 | 12 | -11 | -2.3% | -1.3 | 2
CCc1ccccc1OCc1nc2ccc(S(=O)(=O)N3CCOCC3)cc2[nH]1
→ 6% | 0 | -2 | -20 | -2.6% | 5.4 | 1
CSCCC(NS(=O)(=O)c1ccc(Cl)cc1)C(=O)O (stereo not drawn)
→ 11% | 6 | 4 | -2 | -1.1% | 0.8 | -5
COc1ccc2c(CC(=O)Nc3ccc(OC)nc3)coc2c1
→ 12% | -14 | -5 | -7 | 0.2% | 3.2 | -20
O=C(NCCCN1CCOCC1)c1ccc(S(=O)(=O)Nc2ccccc2)cc1
→ · | -24 | 8 | -1 | 1.8% | 5.2 | -9
O=C(c1cccc(F)c1)N1CCC2(CC1)NCCc1[nH]cnc12
→ 8% | · | 7 | 5 | -0.1% | -1.5 | -8
O=C(OCc1nnc(-c2ccccc2)o1)c1ccc([N+](=O)[O-])s1
→ · | -27 | -24 | 16 | -1.6% | 8.3 | 2
C=C(C)n1c(=O)n(Cc2ccccc2C)c2ccccc21
→ -3% | 1 | 8 | -18 | 1.9% | -3.1 | 5
CN(C)C(=O)Cn1c(SCC(=O)NCc2ccc3c(c2)OCO3)nc2ccccc21
→ 9% | -5 | 1 | 9 | -2.8% | -1.6 | -12
O=C(CN1CCN(c2ccccn2)CC1)NC1CCCC1
→ 4% | -5 | -2 | 5 | -0.8% | 6.6 | -8
CC1=NN(c2ccc(C)cc2C)C(=O)C1C(c1ccccc1)C1C(=O)N(c2ccc(C)cc2C)N=C1C (stereo not drawn)
→ -9% | -1 | 1 | 6 | -2.7% | -3.6 | -20
COC(=O)[C@]1(C)CCC[C@@]2(C)C3CC[C@]4(OC(C)=O)C[C@@]3(CCC21)CC4=O (stereo partly drawn)
→ · | -22 | 7 | -19 | -1.9% | 11 | 6
CCOc1ccc(C(=O)Nc2c3c(nn2-c2ccccc2)CS(=O)(=O)C3)cc1
→ 12% | -7 | 5 | -6 | -1.9% | -1.3 | 11
COC(=O)c1ccc(C(=O)OC)c(NC(=S)N2CCN(c3ccccc3)CC2)c1
→ -4% | 4 | -21 | -6 | · | -0.8 | -23
CC(=O)Nc1ccc(S(=O)(=O)N(Cc2ccco2)Cc2cc3ccccc3[nH]c2=O)cc1
→ 1% | -5 | -1 | -10 | -0.1% | -2.5 | 22

Additional records follow:
Every second line gives: Sfp PPTase inh | CtBP-E1A blk | Six1-Eya2 blk | TRPV1 PAM | PINK1 modulator | D2 ag | D2 PAM
CCCCN1C(=O)C(CC(=O)NCC)SC1=Nc1ccccc1 (stereo not drawn)
→ 6% | -7 | 0 | -14 | -0.9% | -0.1 | -17
COc1cccc(CNC(=O)C2CCN(S(=O)(=O)c3ccc4c(c3)CC(C)N4C(C)=O)CC2)c1 (stereo not drawn)
→ 5% | -9 | -7 | 5 | -0.5% | 5.8 | 1
CC(C#N)(NC(=O)CN1CCN(S(=O)(=O)c2cc(C(F)(F)F)ccc2Cl)CC1)C1CC1 (stereo not drawn)
→ · | -2 | 8 | -11 | 3.3% | 5.3 | -8
COc1ccc(-c2noc(-c3cccnc3)n2)cc1OC
→ 17% | 2 | 9 | -33 | 0.2% | -3.0 | -4
COc1ccccc1N1CCN(C(c2ccc(F)cc2)c2nnnn2C(C)C)CC1 (stereo not drawn)
→ 14% | -1 | 3 | 19 | 1.5% | -3.4 | -20
COc1ccc(NC(=O)/C(C#N)=C/c2ccc(-c3ccccc3C(=O)O)o2)cc1
→ 28% | -15 | -5 | -15 | 0.5% | -6.6 | -4
CCOc1ccc(S(=O)(=O)N2CCN(C(=O)c3sccc3C)CC2)cc1
→ -13% | 1 | 0 | 1 | -3.3% | -1.6 | 7
C[C@@H]1CN([C@H](C)CO)C(=O)c2c(c3ccccc3n2C)-c2ccccc2CO[C@@H]1CN(C)C(=O)Nc1ccccc1C(F)(F)F
→ · | 2 | -1 | · | 0.6% | -0.7 | ·
CCOC(=O)c1cnc2c(C)cc(Cl)cc2c1NCCCN1CCOCC1
→ 2% | 6 | -2 | -27 | 1.9% | 12 | 7
CCOc1ccc(N(CC(=O)NCc2ccc(OC)cc2)S(C)(=O)=O)cc1
→ 2% | · | -2 | -7 | 0.0% | -0.9 | -4
Nc1n[nH]c(C(F)(F)F)c1-c1ccccc1
→ 7% | 2 | 0 | 8 | -2.4% | -2.0 | -4
Cc1nnc(N/N=C/c2ccc(Br)cc2)n1N
→ ? | ? | 1 | 5 | -1.7% | -0.6 | -2
C[C@@H]1CC=C[C@H]2[C@H]1C(=O)N(Cc1ccccc1)[C@H]2c1ccc(C(F)(F)F)cc1
→ 0% | -11 | 1 | -23 | ? | -4.9 | -9
O=C(Nc1nsc(-c2ccccc2)n1)c1cccs1
→ 13% | -3 | -11 | 1 | -0.6% | -0.4 | -48
O=[N+]([O-])c1cccc(COc2ccccc2CN2CCCC2)c1
→ · | -16 | -6 | · | -0.5% | 0.2 | -11
CCNC(=O)NCc1c(C)c(C)n(Cc2ccccc2)c1-n1cccc1
→ 12% | -5 | -1 | -20 | -0.2% | -3.4 | -8
Cc1ccc2c(c1)COc1c3ccc(C(=O)NCCO)cc3nn1-2
→ -2% | -2 | -1 | -12 | -0.4% | -0.7 | -7
O=C(NCc1ccc2c(c1)OCO2)C1CCCCC1
→ 8% | 11 | 0 | 19 | -1.4% | 14 | 18
Nc1n[nH]c(-c2ccc(F)cc2)n1
→ -4% | 4 | 1 | 8 | -1.1% | -2.1 | 3
CCC(CCC(=O)Nc1ccc(S(N)(=O)=O)cc1)C(=O)O (stereo not drawn)
→ 6% | -3 | 4 | 7 | · | -0.1 | -10
COc1ccc(OC)c(S(=O)(=O)N2CCCC(C(=O)NCc3ccncc3)C2)c1 (stereo not drawn)
→ 18% | 4 | -4 | 18 | -1.0% | 0.8 | -3
Cc1ccc(S(=O)(=O)N2CCN(C(=O)COC(=O)c3cnc(C)cn3)CC2)c(C)c1
→ · | -1 | -7 | -5 | -0.8% | -5.1 | -2
Cc1cccc(C(=O)Nc2nnc(-c3ccco3)o2)c1
→ 13% | ? | ? | -3 | -2.9% | -1.2 | -22
O=C(Cn1c(NCCO)nc2ccccc21)N1CCN(Cc2ccccc2)CC1
→ 18% | -15 | 0 | -5 | 4.6% | -4.5 | -4
O=C(c1ccco1)N1CCN(C(=O)C2CC(c3ccc(F)cc3)=NO2)CC1 (stereo not drawn)
→ 17% | -3 | 11 | 10 | -0.5% | -8.3 | -6
CC(C)(C)c1ccc(C(=O)Nc2nnc(C3=COCCO3)o2)cc1
→ 4% | -22 | -18 | 2 | 3.1% | -9.8 | -21
O=C1OCCC1=COCCCCCOC=C1CCOC1=O
→ · | 0 | -16 | · | -1.3% | -3.5 | -7
CCN(CC)Cc1c(O)ccc2cc(-c3nc4ccccc4n3C)c(=O)oc12
→ ? | 5 | -1 | -3 | 0.0% | 2.1 | 2
Cc1cccc(C)c1NC(=O)COC(=O)c1cccnc1
→ -3% | -7 | 5 | 16 | -0.9% | -0.3 | -10
Cn1c(-c2ccccc2)n[nH]c1=S
→ -18% | 8 | 8 | -4 | -2.4% | -5.0 | -13
